Kir21 inh = blocks the mouse Kir2.1 inward-rectifier potassium channel; AID 1672; HEK293-Kir2.1, FluxOR thallium flux fluorescence; hits give low values; 310,000 compounds, 0.85% hits; B-score at 10 µM;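 active = fluorescence ratio B-score at or below minus 3 SD of library scores, with starting-brightness B-score within 2 SD, cut at about -4.2 in these data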;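 also: channel flux triggered by added potassium and thallium sulfate stimulus; B-score of peak minus minimum fluorescence over baseline after thallium stimulus; more negative B-score means stronger Kir2.1 block with less thallium influx; some compounds called inactive have numbers as strong as hits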
Target sequence (P35561 whole entry, looked up): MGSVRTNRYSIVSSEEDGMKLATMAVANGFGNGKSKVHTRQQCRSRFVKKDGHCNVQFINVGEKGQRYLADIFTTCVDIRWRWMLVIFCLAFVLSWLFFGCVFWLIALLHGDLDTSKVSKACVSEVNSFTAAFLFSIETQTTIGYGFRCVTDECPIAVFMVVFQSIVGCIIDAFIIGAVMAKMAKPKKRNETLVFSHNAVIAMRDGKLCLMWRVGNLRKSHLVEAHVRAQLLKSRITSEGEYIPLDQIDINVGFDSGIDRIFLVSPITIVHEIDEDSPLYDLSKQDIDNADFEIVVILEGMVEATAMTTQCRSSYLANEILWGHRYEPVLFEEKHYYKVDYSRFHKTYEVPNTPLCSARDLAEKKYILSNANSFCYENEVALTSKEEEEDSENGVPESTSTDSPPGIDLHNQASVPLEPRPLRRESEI
* = called active by the depositor. Some of the compounds tested; most or all hits stand in other tables.

SMILES	Kir21 inh
Cc1ccc(C)c(N(CC(=O)Nc2ccc(-c3nc4ccc(C)cc4s3)cc2)S(C)(=O)=O)c1	1.4
COc1cc(C(=O)NCC(=O)N/N=C(C)\C=C\c2ccccc2)cc(OC)c1OC	-0.01
COC(=O)C(C)NC(=S)N1CCN(c2c(F)cc3c(=O)c(C(=O)O)cn(C4CC4)c3c2OC)CC1C (stereo not given)	0
Cc1cc(C)cc(Oc2cc(NC(=O)c3cn(C)nc3C)cc([N+](=O)[O-])c2)c1	1.5
O=C1c2ccccc2C(=O)N1CCCCN(C(=O)c1cccc([N+](=O)[O-])c1)c1ccc(Cl)cc1	-0.63
O=C(Nc1cccnc1)c1c(O)c2cccc3c2n(c1=O)CC3	0
Cc1ccc(S(=O)(=O)NCC(=O)NCc2ccncc2)cc1	-0.85
CCn1ncc(C2=NOC(C(=O)NCc3ccc(OC)cc3)C2)c1C (stereo not given)	0.31
CCCCN(CC)CCNS(=O)(=O)c1ccc2c(c1)oc(=O)n2C	-1.1
CCO[C@H]1OC(C(=O)O)=C[C@@H](C2CCCCC2)[C@@H]1CCCO	0.19
Cc1ccc2c(c1)/C(=C/c1ccccc1F)C(=O)N2	1.6
CCCCn1c(N)c(Sc2ccc(C)cc2)c(=O)[nH]c1=O	0.64
COc1ccc2[nH]c(C(=O)N/N=C/c3ccc(OC)c(O)c3)cc2c1	1.2
COc1ccc(-c2cc3ccc(OCC(N)=O)cc3oc2=O)cc1OC	-0.61
CCOC(=O)C1C(=O)OC2(CCCC2)C1C(=O)OCC (stereo not given)	-1.1
CC(C)c1nc(NCCN2CCOCC2)c(C#N)c2c1COC(C)(C)C2	-0.23
Cc1ccc(CSc2nnc(-c3cccnc3)n2N)cc1	0.4
Cc1ccc(S(=O)(=O)CC(=O)NC2CC2)cc1	-1.6
CCOc1ccc(NC(=S)Nc2cc(C)[nH]n2)cc1	1.5
CC1CN(C(=O)c2cccc(S(=O)(=O)Nc3ccccc3Cl)c2)CC(C)O1 (stereo not given)	-0.63
Cc1cnc(C(=O)OCC(=O)NCCc2ccccc2)cn1	0.19
Cn1c(=O)[nH]c(=O)c2c1nc(NCc1ccccc1)n2CC(O)c1ccccc1 (stereo not given)	0.09
N#CCSc1nnc(COc2ccc3ccccc3c2)o1	-0.13
N#Cc1cnc(SCC(=O)c2ccccc2)nc1N	0.76
COc1cccc(-c2nc(-c3ccccc3)[nH]c(=O)c2C#N)c1	0.02
SMILES	Kir21 inh
Clc1ccc(-n2nnnc2Sc2ncnc3sccc23)cc1	-0.3
N#Cc1ccc(N2C(=O)[C@@H]3C(C(=O)C(c4ccccc4)c4ccccc4)=NN[C@@H]3C2=O)cc1	2
CCC(=O)Oc1ccc2c(c1)OC1(OC(C)=O)OC(C)CC1=C2C (stereo not given)	-0.97
CC(OC(=O)CCN=C1NS(=O)(=O)c2ccccc21)C(=O)Nc1ccc(F)c(F)c1F (stereo not given)	-1.1
COc1ccc(Cc2nnc(SC(C)C(=O)Nc3ccc(F)cc3Cl)o2)cc1 (stereo not given)	-0.97
O=C(CSc1nc2[nH]ncc2c(=O)[nH]1)NCc1ccccc1Cl	0.19
Cc1cc(NC(=O)CCN2C(=O)/C(=C\c3ccccc3)SC2=S)no1	-1.2
COCCOC(=O)CSc1ncccc1-c1nc2cc(C)c(C)cc2[nH]1	-0.34
Cn1cc(C(=O)Nc2ccc(Cl)cc2)c(C(F)(F)F)n1	1
COC(=O)CN(c1ccc(Cl)cc1C)S(C)(=O)=O	-0.1
O=C(CN1C(=O)/C(=C\c2ccccc2F)SC1=S)Nc1nc2ccccc2s1	0.58
O=[N+]([O-])c1cc(C(F)(F)F)cc([N+](=O)[O-])c1N1CCN(S(=O)(=O)c2ccccc2)CC1	-0.86
CC1CC(C)CN(S(=O)(=O)c2ccc3c(c2)oc(=O)n3CC(=O)NCCCOC(C)C)C1 (stereo not given)	1.4
CCOC(=O)c1ccccc1NC(=O)COC(=O)CCC(=O)N1CCOCC1	-1.7
NS(=O)(=O)c1ccc(CCNC(=O)CNC(=O)Cc2ccccc2)cc1	-0.48
COc1cccc(C(=O)Nc2ncc3c(n2)CC(c2ccc(OC)cc2OC)CC3=O)c1 (stereo not given)	-1.2
CCCNC(=S)N1CCN(c2nc(-c3ccc(C)cc3)cs2)CC1	-2.1
N#Cc1c(NC(=O)CSc2ncnc3sccc23)oc(-c2ccco2)c1-c1ccco1	1.8
COC(=O)C1C(C(=O)OC)C1(c1ccccc1)c1ccccc1 (stereo not given)	0.6
CCS(=O)(=O)c1ccc(C(=O)Nc2ccccc2OC)c(Cl)c1Cl	2.5
CCC(=O)N1CCN(c2cc(C)ccc2C)CC1	-1.6
CCOc1ccc(CC(C(N)=O)C(N)=O)cc1	0.99
CCC1=NN2C(=N)/C(=C/c3ccc(OS(=O)(=O)c4ccccc4)c(OC)c3)C(=O)N=C2S1	-1.4
CNC(=O)CN1C(=O)C2C3C=CC(C3)C2C1=O (stereo not given)	-0.02
C/C(=N\NC(=O)c1nnn(-c2nonc2N)c1CN(C)C)c1ccco1	-0.4
SMILES	Kir21 inh
COc1ccc(OC)c(NC(=O)c2cnn(-c3ccccc3Cl)c2NC(=O)c2ccco2)c1	0.11
COC(CN(C(=O)CCl)C(C(=O)NC1CCCCC1)c1ccccc1C)OC (stereo not given)	-0.9
COc1ccc(S(N)(=O)=O)cc1C(=O)NCC(C)(C)N1CCOCC1	-0.24
CCc1ccccc1N1C(=O)C2C3C=CC(CC3)C2C1=O (stereo not given)	-0.08
CCc1ccc(NC(=O)C(CC)Sc2nc3cc4c(cc3c(=O)n2Cc2ccco2)OCO4)cc1 (stereo not given)	0.04
CCOC(=O)c1c(C)nn(-c2ccc(NC(=O)CSCC(=O)O)cc2)c1C	-0.79
CCOc1cc(-c2nc3ccccn3c2NCC2CCCO2)ccc1O (stereo not given)	-0.03
COCCCNCCOCCOc1ccc(C)cc1Br	-1.1
COc1ccc(CN(C)C(=O)c2[nH]c(C)c(C(C)=O)c2C)c(OC)c1OC	-1.5
COc1cc(C(CCN2CCCCC2)c2c(OC)cc(OC)c3c(C)cc(=O)oc23)cc(OC)c1OC (stereo not given)	0.09
COc1ccccc1CNC(=O)C1CC(c2ccccc2C(F)(F)F)=NO1 (stereo not given)	-0.77
COc1ccc(CNC(=O)C(=O)NCC2OCCN2S(=O)(=O)c2ccc(OC)c(OC)c2)cc1 (stereo not given)	-1.4
COc1ccc(C(=O)Nc2ccc3nc(C)c(C)nc3c2)cc1	0.56
CCOC(=O)CSc1nc2cc(C(=O)NCC3CCCO3)ccc2c(=O)n1Cc1ccco1 (stereo not given)	-0.17
O=C(Nc1ccccc1Cl)Nc1ccnn1C1CCN(C(=O)c2cscn2)CC1	-0.21
Nc1ccc(S(=O)(=O)N2CCCC2C(=O)O)cc1 (stereo not given)	1.1
Cc1cccc(S(=O)(=O)N2CN(CC3CCCO3)c3nc4ccccc4nc32)c1 (stereo not given)	-0.79
COc1cc2c(cc1OC)C(c1cc(C)ccc1C)CC(=O)N2 (stereo not given)	-0.64
CC(=O)Oc1ccccc1C(=O)O	-1.2
O=C(Nc1ccc(NC(=O)c2cccnc2)cc1)c1ccccc1	0.16
CCNc1nc(Sc2ccc(C)cc2)cc(C(F)(F)F)n1	-0.12
O=c1c2ccccc2ncn1Cc1nc2ccccc2s1	0.79
CCC(C)(C)NC(=O)C(c1cccc(OC)c1OC)N(Cc1ccc(OC)cc1)C(=O)CCC(=O)Nc1cc(C)on1 (stereo not given)	-0.7
CC(C)(C)c1ccc(C(=O)NC(=S)Nc2sc3c(c2C#N)CCC3)cc1	0.02
COC(=O)c1ccc(COC(=O)C(CCSC)NC(=O)COc2ccccc2)cc1 (stereo not given)	-2.2
SMILES	Kir21 inh
CN1CCCN(C(=O)Cc2c(Cl)cccc2Cl)c2nc3ccccc3nc21	0.01
CCOC(=O)c1c(C)[nH]c(C(=O)OCc2c(C)noc2C)c1C	1.8
COc1ccc(C(=O)NCC(O)COc2ccc(C(C)(C)C)cc2)cc1[N+](=O)[O-] (stereo not given)	2.9
C=CCNC(=S)N(Cc1ccccc1)Cc1ccccc1	-1.9
CCOC(=O)c1c(C)[nH]c(C)c1C(=O)CSc1nncs1	-0.25
Cc1ccccc1-c1nc(SCc2cccnc2)c2c(=O)n(C)c(=O)n(C)c2n1	0.82
CCN(C(=O)C1CCCCC1)c1nnc(-c2cccnc2)s1	1.3
COC(=O)Nc1ccc(S(=O)(=O)N2CCC(C(=O)N(C)C3CCCCC3)CC2)cc1	0.22
COc1ccc(NC(=O)NCc2ccncc2)cc1	1.1
Cc1nn(Cc2ccccc2)c2c1C(c1ccc(Cl)cc1)C(C#N)=C(N)O2 (stereo not given)	-0.99
COc1ccc(C)cc1C(=O)C1CC(C(=O)O)C(C)(C)C1C (stereo not given)	0.55
COC(=O)c1ccccc1NC(=O)CN(Cc1ccc(Cl)cc1)S(C)(=O)=O	-0.82
CCC(CC)C(=O)Nc1cc(Cl)ccc1C	-0.36
CCOc1cccc(-c2nn3c(-c4ccccn4)nnc3s2)c1	1.6
O=C(CN(c1ccc(F)cc1)S(=O)(=O)c1ccc2c(c1)OCCO2)N1CCOCC1	0.25
Cc1ccc2nc(SCc3nc4cc(Cl)ccc4c(=O)[nH]3)[nH]c2c1	1.2
Cc1ccc(NC(=S)NN2CCN(C)CC2)c(C)c1	-0.75
COc1cccc(OC(=O)CSc2nnc(-c3ccccc3Br)o2)c1	-0.1
CCCn1cc(SCC(=O)Nc2ccc3c(c2)OCO3)c2ccccc21	-0.8
O=C(CCSc1ccccc1)N1CCCC1	-0.97
O=C(NC1CCCCCCC1)c1ccc2c(c1)N(Cc1ccc(F)cc1)C(=O)CS2=O (stereo not given)	-1.3
COc1ccc(C(=O)OCCN2CCOCC2)cc1	0.59
COc1ccc(OCc2nc(N)nc(Nc3ccc(C)cc3)n2)cc1	2.2
CC(NC(=O)OCc1ccccc1)C(=O)Oc1cc2oc(=O)cc(-c3ccccc3)c2cc1Cl (stereo not given)	0.59
Cc1cc(C)c2c(SC(C)C)nc(N)nc2n1	-0.74

7 of these compounds in another layout.
Kir21 inh | Molecule
0.25 | O=C(CN(c1ccc(F)cc1)S(=O)(=O)c1ccc2c(c1)OCCO2)N1CCOCC1
-0.74 | Cc1cc(C)c2c(SC(C)C)nc(N)nc2n1
0.55 | COc1ccc(C)cc1C(=O)C1CC(C(=O)O)C(C)(C)C1C (stereo not given)
2.9 | COc1ccc(C(=O)NCC(O)COc2ccc(C(C)(C)C)cc2)cc1[N+](=O)[O-] (stereo not given)
-0.36 | CCC(CC)C(=O)Nc1cc(Cl)ccc1C
-1.9 | C=CCNC(=S)N(Cc1ccccc1)Cc1ccccc1
-0.82 | COC(=O)c1ccccc1NC(=O)CN(Cc1ccc(Cl)cc1)S(C)(=O)=O

Following part
SMILES	Kir21 inh
CC(C)CC(NC(=O)C1CCCCC1)C(=O)N1CCN(c2ccccn2)CC1 (stereo not given)	-0.02
Cc1csc(CN(C)C(=O)C2CCC(=O)N(CCN(C)C)C2)n1 (stereo not given)	-1.9
Cc1ccc2cccc(OCC(=O)N3CC(C)CC(C)C3)c2n1 (stereo not given)	-0.03
CCC(C)Sc1ccc([C@@H]2[C@@H]3C(=O)N(C)C(=O)[C@@H]3[C@]3(C(=O)OC)CCCCN23)cc1OC (stereo not given in full)	1.1
COCCn1c(SCc2ccc(Cl)cc2)nc2c1c(=O)[nH]c(=O)n2C	-2.2
CC(C)(C)SCCNC(=O)c1ccccc1	-0.98
O=C(N/N=C1\CCCc2ccccc21)c1cccc([N+](=O)[O-])c1	-0.2
O=C(Oc1ccnc2cc(Cl)ccc12)N1CCCCCC1	0.81
O=C(Cn1c(=O)oc2ccccc21)Nc1nc(-c2ccccc2)cs1	0.07
Cc1cc(C)n(CCN(C)C(=O)CCc2nnc(-c3ccc4c(c3)OCO4)o2)n1	-0.2
Cn1c(=O)[nH]c(=O)c2c1nc(Br)n2CC(O)COc1ccc(Cl)cc1 (stereo not given)	0.38
CC(=O)NS(=O)(=O)c1cccnc1Nc1cccc(Cl)c1C	-1.8
COc1ccc(/C=N/NC(=S)NCc2ccccc2)cc1OC	-2.1
Cc1ccc2nc(SCc3nnc(-c4cccs4)o3)[nH]c2c1	-0.76
CC(=O)N1CCOCCOCCN(C(C)=O)CCOCCOCC1	-0.1
COc1cccc2cccc(/C=N/n3cnnc3)c12	1.4
COC(=O)C1=C(Nc2ccc(OC)cc2)C=C(C)C(C(=O)OC)C1c1ccc(C)cc1 (stereo not given)	0.22
Cc1cc(/C=C(\C#N)C(=O)NCCc2c[nH]c3ccccc23)c(C)n1C	0.1
CCOc1ccc(-c2nc(-c3cccnc3)no2)cc1OCC	-0.3
Cc1ccc(C(=O)Nc2ccc(NC(=O)c3cccs3)cc2)cc1[N+](=O)[O-]	0.22
Cc1nn(-c2ccc(F)cc2)c(Cl)c1/C=C/C(=O)OCC(=O)Nc1ccc(F)cc1F	2
CC(C)(C)c1ccc(OCC(O)CN2CCN(C(=O)c3ccccc3)CC2)cc1 (stereo not given)	-0.25
O=C(OCC#CCSc1nnc(-c2ccc(Br)cc2)o1)c1ccco1	0.51
Cc1cc(C)n(-c2ccc([N+](=O)[O-])cc2-c2nn[nH]n2)n1	0
Cc1ccc(Nc2ccc(C(N)=O)cc2[N+](=O)[O-])cc1	-1.1
NC(=O)c1ccc(N2CCOCC2)nc1	0.64
O=C(CCc1nnc(CCC2CCCCC2)o1)NCCc1cccnc1	1.4
Cc1cc(OCC(=O)NCCO)cc(C)c1Cl	3.4

Laid out differently: four of the compounds above.
canonical_smiles: Cc1cc(C)n(-c2ccc([N+](=O)[O-])cc2-c2nn[nH]n2)n1
  Kir21 inh: 0
canonical_smiles: CC(C)CC(NC(=O)C1CCCCC1)C(=O)N1CCN(c2ccccn2)CC1 (stereo not given)
  Kir21 inh: -0.02
canonical_smiles: CCOc1ccc(-c2nc(-c3cccnc3)no2)cc1OCC
  Kir21 inh: -0.3
canonical_smiles: CC(C)(C)c1ccc(OCC(O)CN2CCN(C(=O)c3ccccc3)CC2)cc1 (stereo not given)
  Kir21 inh: -0.25
